DUX4 txn inh = DUX4-mediated transcription inhibition | 293T-iDUX4 ZSCAN4-Gaussia luciferase reporter, 24 h; active compounds read low | activity change, negative = inhibition, % (no concentration beside the values) | 37,000 compounds, 0.8% hits | AID 1224904;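 active = -10% or lower and over 25 points stronger than a control reporter; inconclusive = -10% or lower with a smaller gap; inactive = above -10%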;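 note: 0% = median of neutral control wells and -100% = median of positive control wells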
DUX4 txn inh difference = second read-out of DUX4 txn inh, no call of its own (marks repeat the call); Gaussia minus Italica difference, %; measured here: selective DUX4 reporter inhibition;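 worked out from the two reporters; negative = selective loss of the DUX4 reporter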
DUX4 txn inh control = second read-out of DUX4 txn inh, no call of its own (marks repeat the call); activity change, negative = inhibition, %; measured here: Italica tet-on control reporter;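 0 = neutral control and -100 = positive control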
* marks the source's active call; other numbers are inactive results; ? = inconclusive; · = not tested or not shown; & = joins results of further samples. These rows are one share of the data (hit frequency here may not be typical).

SMILES	DUX4 txn inh	DUX4 txn inh difference	DUX4 txn inh control
CNC(=O)C[C@@H]1CC[C@H]2[C@@H](COc3ccc(NC(=O)Nc4ccc(Cl)cc4)cc3C(=O)N2C)O1	1.6	-7.3	8.8
O=C(C[C@@H]1CC[C@@H]2[C@H](COC[C@@H](O)CN2C(=O)Nc2cccc(Cl)c2)O1)NCC1CCCCC1	-7.6	2.0	-9.6
COCC(=O)Nc1ccc2c(c1)C(=O)N(C)[C@@H]1CC[C@H](CC(=O)NC3Cc4ccccc4C3)O[C@@H]1CO2	1.2	3.2	-2.0
O=C(NCCc1ccncc1)[C@H]1[C@H](CO)[C@H]2Cn3c(ccc(-c4cccnc4)c3=O)[C@H]2N1C(=O)C1CC1	4.7	-0.5	5.2
C[C@H](NC(=O)C[C@H]1C[C@H]2c3cc(NC(=O)Cc4ccncc4)ccc3O[C@H]2[C@H](CO)O1)c1ccccc1	?	·	·
COc1cccc(S(=O)(=O)N2C[C@@H](O)COC[C@H]3O[C@@H](CC(=O)N4CCN(c5ccccc5)CC4)CC[C@@H]32)c1	-1.5	-3.9	2.4
C/C=C/c1ccc2c(c1)O[C@@H](CN(C)C(=O)c1cccc(F)c1)[C@H](C)CN([C@@H](C)CO)S2(=O)=O	-2.5	-4.2	1.7
C[C@@H]1CCCCO[C@H](CN(C)C(=O)Cc2ccccc2)[C@H](C)CN([C@@H](C)CO)C(=O)c2cc(NC(=O)Nc3ccc(C(F)(F)F)cc3)ccc2O1	-0.3	-1.7	1.3
CN1[C@H](CO)[C@@H]2c3ccccc3N(C(=O)c3ccc(F)cc3)C[C@@H]21	-0.5	0.8	-1.3
CO[C@@H](CN(C)Cc1ccc2c(c1)OCO2)[C@H](C)CN(C(=O)c1ccccc1)[C@@H](C)CO	-8.9	-1.9	-7.0
CO[C@@H]1CC[C@H]2CCOc3c(C#N)cccc3C(=O)N(C)C[C@H](C)C(=O)N(C)C[C@@H]1O2	-2.0	0.9	-2.9
C[C@@H]1CN([C@@H](C)CO)C(=O)CCCn2cc(nn2)CO[C@@H]1CN(C)C(=O)CCCN(C)C	8.9	4.5	4.4
O=C(NC1CCC1)[C@@H]1[C@@H](CO)[C@@H]2Cn3c(ccc(-c4ccc(F)cc4)c3=O)[C@H]1N2Cc1cocn1	-1.4	4.1	-5.5
CCCNC(=O)N[C@H]1C=C[C@H](CC(=O)NCCc2ccccc2)O[C@H]1CO	2.9	0.3	2.6
COc1ccc(C[C@@H]2CCn3cc(nn3)COC[C@@H](c3ccccc3)NC2=O)cc1	-0.5	-1.9	1.3
O=C(C[C@H]1C[C@@H]2c3cc(NS(=O)(=O)c4ccc(F)cc4)ccc3O[C@@H]2[C@H](CO)O1)NCCc1ccccc1	0.7	3.4	-2.6
CO[C@H](CN(C)Cc1ccc(-c2ccccn2)cc1)[C@@H](C)CN(C(=O)Nc1ccc(F)cc1)[C@H](C)CO	-1.4	-0.7	-0.7
COc1ccccc1-c1ccc([C@@H]2[C@@H](CO)N3CCCCN(C(=O)CN4CCOCC4)C[C@@H]23)cc1	10.0	-9.3	19.3
CO[C@H](C(=O)N(C)C[C@@H]1OCc2ccccc2-c2c(n(C)c3ccccc23)C(=O)N([C@@H](C)CO)C[C@@H]1C)c1ccccc1	?	·	·
O=C(C1CCOCC1)N1C[C@@H]2[C@H](c3ccccc31)[C@@H](CO)N2C(=O)c1ccccc1	3.9	0.4	3.5
C[C@@H]1CN([C@H](C)CO)C(=O)c2c(c3ccccc3n2C)-c2ccccc2CO[C@H]1CN(C)Cc1cccc(F)c1	-34.6*	-34.6*	0.0*
CCC(=O)N1[C@@H](C#N)[C@@H](c2ccccc2-c2ccccc2)[C@@H]1CO	11.8	-3.0	14.9
CCN1CC(=O)N2[C@H](C1)[C@H](c1ccc(Br)cc1)[C@@H]2CO	13.1	2.4	10.6
CCCC#Cc1ccc([C@@H]2[C@H](CO)N3C(=O)CN(C(=O)c4cccnc4)C[C@@H]23)cc1	8.0	3.9	4.1
CCN1CC(=O)N2[C@@H](CO)[C@H](c3ccc(Br)cc3)[C@@H]2C1	12.9	7.0	5.9
CCC(=O)NC[C@H]1N[C@H](CO)[C@@H]1c1ccc(C2=CCCC2)cc1	1.7	-0.8	2.5
CO[C@H]1CC[C@@H]2CCOc3c(C#N)cccc3C(=O)N(C)C[C@H](OC)[C@H](C)C(=O)N(C)C[C@@H]1O2	-0.4	-2.4	2.0
CCCNC(=O)Nc1ccc2c(c1)OC[C@H](C)N(S(C)(=O)=O)C[C@H](C)[C@@H](OC)CN(C)C2=O	3.4	-1.3	4.7
CC(C)C#Cc1ccc2c(c1)O[C@H](CN(C)C(=O)Nc1ccccc1)[C@@H](C)CN([C@H](C)CO)S2(=O)=O	1.7	2.1	-0.5
CC=Cc1ccc2n(c1=O)C[C@H]1[C@H](CO)[C@@H](C(=O)NCc3ccccn3)[C@@H]2N1CC1CC1 (mixture of isomers)	0.5	0.6	-0.2
CN(C)CC#Cc1ccc([C@H]2[C@H]3CN(C(=O)c4cccnc4)CC(=O)N3[C@H]2CO)cc1	17.2	13.0	4.2
O=C(C[C@@H]1CC[C@@H]2[C@H](COC[C@H](O)CN2C(=O)Nc2ccc3c(c2)OCO3)O1)N1CCN(c2ccccc2)CC1	-1.3	-4.1	2.8
COc1ccc(-c2ccc(C3[C@@H]4CN(C(=O)c5ccc(F)cc5)C[C@H]3N4)cc2)cc1 (stereo not given in full)	?	-6.3	-0.5
CCCC#Cc1cnc2c(c1)C(=O)N([C@@H](C)CO)C[C@H](C)[C@H](CN(C)C(=O)Nc1cc(F)ccc1F)O2	2.9	6.6	-3.7
CN1c2ccc(C3=CCCCC3)cc2[C@@H]2[C@@H](CCN2C(=O)Nc2ccc(F)cc2)[C@@H]1CO	2.7	-11.2	13.9
CC=Cc1ccc2n(c1=O)C[C@H]1[C@H](CO)[C@@H](C(=O)NCCc3cn(C)cn3)N(C(=O)C3CC3)[C@@H]21 (mixture of isomers)	-5.1	-6.6	1.5
CO[C@H]1CN(C)C(=O)c2cc(NS(=O)(=O)CC(F)(F)F)ccc2OC[C@H](C)N(C)C[C@@H]1C	2.0	0.6	1.3
CC(=O)Nc1ccc2c(c1)C(=O)N(C)[C@@H]1CC[C@@H](CC(=O)NCc3ccc4c(c3)OCO4)O[C@@H]1CO2	-6.7	-5.5	-1.1
CC=Cc1ccc2n(c1=O)C[C@H]1[C@H](CO)[C@@H](C(=O)N[C@@H](C)c3ccccc3)N(C(=O)c3ccccn3)[C@@H]21 (mixture of isomers)	-0.7	-0.6	-0.1
CCC(=O)N1CCC2(CC1)CN(Cc1cccc(Cl)c1)[C@H](CO)c1c2c2ccc(OC)cc2n1C	?	·	·

Seven of the entries above in order of their number in DUX4 txn inh difference, rising.
SMILES	DUX4 txn inh	DUX4 txn inh difference	DUX4 txn inh control
CN1c2ccc(C3=CCCCC3)cc2[C@@H]2[C@@H](CCN2C(=O)Nc2ccc(F)cc2)[C@@H]1CO	2.7	-11.2	13.9
CC=Cc1ccc2n(c1=O)C[C@H]1[C@H](CO)[C@@H](C(=O)NCCc3cn(C)cn3)N(C(=O)C3CC3)[C@@H]21 (mixture of isomers)	-5.1	-6.6	1.5
COc1ccc(-c2ccc(C3[C@@H]4CN(C(=O)c5ccc(F)cc5)C[C@H]3N4)cc2)cc1 (stereo not given in full)	?	-6.3	-0.5
CC(=O)Nc1ccc2c(c1)C(=O)N(C)[C@@H]1CC[C@@H](CC(=O)NCc3ccc4c(c3)OCO4)O[C@@H]1CO2	-6.7	-5.5	-1.1
O=C(C[C@@H]1CC[C@@H]2[C@H](COC[C@H](O)CN2C(=O)Nc2ccc3c(c2)OCO3)O1)N1CCN(c2ccccc2)CC1	-1.3	-4.1	2.8
CC=Cc1ccc2n(c1=O)C[C@H]1[C@H](CO)[C@@H](C(=O)N[C@@H](C)c3ccccc3)N(C(=O)c3ccccn3)[C@@H]21 (mixture of isomers)	-0.7	-0.6	-0.1
CO[C@H]1CN(C)C(=O)c2cc(NS(=O)(=O)CC(F)(F)F)ccc2OC[C@H](C)N(C)C[C@@H]1C	2.0	0.6	1.3

Additional structures:
SMILES	DUX4 txn inh	DUX4 txn inh difference	DUX4 txn inh control
O=C(N[C@@H]1CC[C@H](CCNS(=O)(=O)c2ccc(Cl)cc2)O[C@H]1CO)c1ccccn1	2.1	-2.1	4.2
COc1ccccc1C#Cc1ccc2c(c1)[C@@H]1[C@@H](CCN1C(=O)c1ccncc1)[C@@H](CO)N2	-9.0	-7.8	-1.2
COCC(=O)N1CC2(C1)CN(Cc1cc(F)ccc1F)[C@@H](CO)c1[nH]c3cc(OC)ccc3c12	?	·	·
C[C@H](CO)N1C[C@H](C)[C@H](CN(C)C(=O)Nc2ccc3c(c2)OCO3)Oc2ncc(Br)cc2C1=O	0.4	2.0	-1.7
COCC#Cc1ccc([C@@H]2[C@@H](C#N)N(C(=O)Cc3ccccc3)[C@@H]2CO)cc1	0.5	0.9	-0.3
C[C@H]1CN([C@@H](C)CO)C(=O)Cc2cc(NC(=O)Nc3ccc(F)cc3)ccc2O[C@H]1CN(C)Cc1ccc(-c2ccccc2)cc1	3.8	1.7	2.1
CC=Cc1ccc2n(c1=O)C[C@@H]1[C@@H](CO)[C@H](C(=O)NCCC)N(Cc3ccccn3)[C@H]21 (mixture of isomers)	-2.3	-0.5	-1.8
CN(C)C(=O)c1cccc(-c2ccc(C3[C@H]4CNC[C@@H]3N4C(=O)Nc3ccccc3F)cc2)c1 (stereo not given in full)	14.5&11.1	11.6&9.3	2.8&1.8
COc1ccc(S(=O)(=O)N(C)C[C@@H]2OCCCC[C@H](C)Oc3ccc(NC(=O)Nc4cccc5ccccc45)cc3C(=O)N([C@@H](C)CO)C[C@H]2C)cc1	-1.7	-4.7	3.1
COCC#Cc1ccc([C@H]2[C@H](CO)N3C(=O)CN(C(=O)Nc4cc(F)ccc4F)C[C@@H]23)cc1	5.2	-1.9	7.1
CC=Cc1ccc2n(c1=O)C[C@H]1[C@H](CO)[C@@H](C(=O)N[C@H](C)c3ccccc3)N(C)[C@@H]21 (mixture of isomers)	-0.4	1.1	-1.5
O=C(NC1Cc2ccccc2C1)[C@@H]1[C@@H](CO)[C@@H]2Cn3c(cccc3=O)[C@@H]2N1C(=O)c1ccccn1	4.4	9.9	-5.5
COc1ccc(CN2[C@@H]3CN(C(=O)Nc4ccc(F)cc4)c4ccccc4[C@@H]3[C@@H]2CO)cc1	2.7	1.8	0.9
CCC(=O)NC[C@H]1[C@H](c2ccccc2)[C@@H](CO)N1C(=O)C1CCC1	-0.6	-0.5	-0.1
O=C(NC[C@@H]1[C@H](c2ccccc2)[C@H](CO)N1C(=O)Cc1cccnc1)C1CCC1	3.7	1.3	2.4
C[C@H](CO)N1C[C@H](C)[C@@H](CN(C)Cc2ccccc2)Oc2ncc(C#CC3(O)CCCC3)cc2C1=O	-2.2	0.6	-2.8
CCC(=O)N1[C@H](CN(C)C(C)=O)[C@@H](c2ccc(C3=CCCC3)cc2)[C@@H]1CO	-1.7	-1.9	0.2
COc1cccc(-c2ccc3c(c2)O[C@H](CN(C)Cc2cccnc2)[C@H](C)CN([C@@H](C)CO)S3(=O)=O)c1	2.6	-1.3	3.9
CN(C)C(=O)[C@H]1[C@H](CO)[C@H]2Cn3c(ccc(-c4ccncc4)c3=O)[C@@H]1N2C(=O)NC1CCCC1	7.0	-1.0	8.1
Cc1ccc(S(=O)(=O)Nc2ccc3c(c2)CC(=O)N([C@H](C)CO)C[C@H](C)[C@@H](CN(C)Cc2ccc(Cl)c(Cl)c2)O3)cc1	3.2	4.9	-1.7
C[C@@H]1CN([C@@H](C)CO)C(=O)c2ccccc2-c2ccccc2CO[C@H]1CN(C)C(=O)Nc1cccc(F)c1	0.4	-14.7	15.1
C/C=C/c1cnc2c(c1)C(=O)N([C@H](C)CO)C[C@H](C)[C@H](CN(C)Cc1ccncc1)O2	5.2	3.5	1.7
CCCNC(=O)N1C[C@H]2[C@@H](c3ccccc31)[C@@H](CO)N2C(=O)C1CCOCC1	-2.9	-2.3	-0.6
CCC(=O)N1[C@H](CO)[C@@H]2c3ccccc3N(C(=O)c3ccncc3)C[C@@H]21	1.1	-0.9	2.0
COCC(=O)N1[C@H](C#N)[C@H](c2ccccc2C2=CCCCC2)[C@H]1CO	-0.7	-9.0	8.2
COc1ccc2c3c([nH]c2c1)[C@@H](CO)N(Cc1ccccc1)CC31CN(C(=O)c2ccccn2)C1	?	·	·
C[C@@H]1CN([C@H](C)CO)C(=O)c2ccccc2-c2ccccc2CO[C@@H]1CN(C)C(=O)c1cc(Cl)cc(Cl)c1	?	·	·
COc1ccc(NC(=O)N(C)C[C@H]2OCc3cnnn3CCCC(=O)N([C@@H](C)CO)C[C@@H]2C)c(OC)c1	3.0	4.3	-1.3
O=C(Cc1ccccc1)N1CC(=O)N2[C@H](CO)[C@@H](c3ccc(Br)cc3)[C@@H]2C1	7.6	-1.4	9.1
COc1ccc(S(=O)(=O)N(C)C[C@H]2OCc3ccccc3-c3c(n(C)c4ccccc34)C(=O)N([C@@H](C)CO)C[C@@H]2C)cc1	?	·	·
CCC(=O)N1[C@@H]2c3cccc(=O)n3C[C@@H]2[C@@H](CO)[C@@H]1C(=O)NC1CCC1	11.7	17.0	-5.3
CN1C(=O)c2cc(NC(=O)C3CCOCC3)ccc2OC[C@H]2O[C@H](CC(=O)NC3CCCC3)CC[C@H]21	6.6	2.8	3.9
O=C(NCc1ccc(F)cc1)[C@@H]1N[C@@H]2c3ccc(-c4ccccc4)c(=O)n3C[C@@H]2[C@H]1CO	-7.0	-0.8	-6.2
O=C(NCc1ccc(F)cc1)[C@@H]1[C@@H](CO)[C@@H]2Cn3c(cccc3=O)[C@H]1N2Cc1cccnc1	1.9	4.1	-2.3
Cc1ccccc1S(=O)(=O)N(C)C[C@@H]1OCc2cnnn2CCCC(=O)N([C@@H](C)CO)C[C@H]1C	0.4	-1.9	2.4
CCCNC(=O)N(C)C[C@H]1N[C@@H](CO)[C@@H]1c1ccc(C2=CCCCC2)cc1	2.4	0.1	2.3
O=C(C[C@H]1CC[C@H]2[C@@H](COC[C@H](O)CN2Cc2nccs2)O1)NCc1ccc(Cl)cc1	9.6	17.3	-7.7
